ALR H2O2 inh = blocks human ALR sulfhydryl oxidase activity; purified ALR, DTT oxidation, H2O2 HRP-luminol luminescence; AID 485317; 290,000 tested, 3.8% active; inhibition, % (no concentration beside the values);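 active = mean and each replicate at 75% or more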;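 note: stock transfer was 7.5 nL into about 7.5 µL; 0% = neutral wells and 100% = wells with inactivated enzyme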
Target sequence (P55789 whole entry, looked up): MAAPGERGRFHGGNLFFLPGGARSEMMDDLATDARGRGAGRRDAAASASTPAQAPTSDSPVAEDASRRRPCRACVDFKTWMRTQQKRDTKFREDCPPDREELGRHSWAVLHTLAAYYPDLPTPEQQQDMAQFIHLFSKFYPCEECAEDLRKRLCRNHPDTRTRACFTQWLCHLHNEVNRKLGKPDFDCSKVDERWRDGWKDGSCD
UCH37 inh = human UCH37 deubiquitinating enzyme inhibition | Q9Y5K5 | purified proteasome/UCH37, Ub-AMC cleavage fluorescence | inhibition, % (no concentration beside the values) | 330,000 tested, 0.33% active;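 active = mean of two replicates above 20%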;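 note: 0% = compound-free wells with enzyme and 100% = wells lacking proteasome; stock transfer was 100 nL into about 20 µL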
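Test system – human UCH37 enzyme supplied as purified proteasome complex · Incubation – 30 min preincubation with enzyme, 25 min cleavage at room temperature · Detection – AMC fluorescence from Ub-AMC cleavage, excitation 355 nm, emission 460 nm · Benchmarks – no-proteasome wells (full inhibition) and compound-free wells (no inhibition)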
FGF22 binding = FGF22 (human) thermal shift binding; calls only at 9.99 µM; recombinant FGF22 thermal shift, SYPRO orange fluorescence; percent of sucrose octasulfate shift, DMSO zero; Q9HCT0; AID 651658; 340,000 tested, 1.5% active;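 active = melting point raised past a set limit in the mean and every replicate; three in four hits are not shown here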
HNF4A DNA FP = change in binding of human HNF4 alpha to DNA; P41235; HNF4a-FITC DNA binding, fluorescence polarization, 1 h; activity change, % at 10 µM; 360,000 tested, 0.3% active; AID 1224865; in the data active = activity change above about 30%, passing the limit was not always enough;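 note: controls were the assay level and a saturating level of protein; the project sought stronger binding though the title names inhibitors; some compounds called inactive have numbers as strong as hits; positive values seem to mean higher polarization but the record does not say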
Target sequence (P41235 whole entry, looked up): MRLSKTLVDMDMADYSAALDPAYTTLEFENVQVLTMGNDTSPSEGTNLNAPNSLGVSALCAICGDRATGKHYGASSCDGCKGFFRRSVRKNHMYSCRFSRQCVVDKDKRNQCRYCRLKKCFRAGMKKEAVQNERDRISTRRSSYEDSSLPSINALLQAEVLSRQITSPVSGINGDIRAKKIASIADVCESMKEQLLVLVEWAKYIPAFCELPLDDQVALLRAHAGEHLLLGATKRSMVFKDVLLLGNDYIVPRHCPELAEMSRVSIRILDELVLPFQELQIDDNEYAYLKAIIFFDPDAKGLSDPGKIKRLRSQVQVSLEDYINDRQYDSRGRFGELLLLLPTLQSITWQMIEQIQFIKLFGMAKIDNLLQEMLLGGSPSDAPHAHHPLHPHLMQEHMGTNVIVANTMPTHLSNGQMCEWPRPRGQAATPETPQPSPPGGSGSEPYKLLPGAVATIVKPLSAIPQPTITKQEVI
B2AR ag = human beta-2 adrenergic receptor agonism by FAP; response, % (concentration not given with the values); Am2.2-beta2AR cells, FAP receptor internalization, flow cytometry; reference of the scale not given here; 340,000 tested, 0.43% active;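 active = response above a set limit, near 3 SD of response in nonfluorescent compounds, cut at about 42% in these data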;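 note: stock transfer was 100 nL into about 11 µL; a reference agonist was the positive control; negative values mostly stem from fluorescent compounds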
Target sequence (P07550 whole entry, looked up): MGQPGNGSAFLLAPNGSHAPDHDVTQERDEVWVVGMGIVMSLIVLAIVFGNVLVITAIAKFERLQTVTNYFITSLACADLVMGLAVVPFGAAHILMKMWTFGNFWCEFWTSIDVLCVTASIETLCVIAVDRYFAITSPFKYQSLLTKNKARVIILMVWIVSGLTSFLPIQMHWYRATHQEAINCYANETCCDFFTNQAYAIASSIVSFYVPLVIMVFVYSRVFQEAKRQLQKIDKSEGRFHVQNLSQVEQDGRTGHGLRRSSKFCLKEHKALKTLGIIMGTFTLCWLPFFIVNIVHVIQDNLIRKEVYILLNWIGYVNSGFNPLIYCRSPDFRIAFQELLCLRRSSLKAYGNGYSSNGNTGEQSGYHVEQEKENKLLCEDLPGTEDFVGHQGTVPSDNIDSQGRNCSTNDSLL
E coli growth = inhibitors of Escherichia coli growth | OD600, 23 h; active compounds read low | 330,000 tested, 0.21% active | OD600 absorbance (concentration not given with the values) | AID 1053175;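 active = OD600 absorbance below the run mean of sample wells minus 3.6 SD, in any replicate, cut at about 0.56 in these data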;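 note: stock transfer was 300 nL into about 60 µL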
LANA-H2A inh = blocks KSHV LANA binding to histone H2A/H2B; inhibition, % (no concentration beside the values); 320,000 tested, 0.6% active; cell-free LANA-H2A/H2B peptide, fluorescence polarization; in the data active = inhibition mostly above about 10%, no sharp cut-off; inactive = mostly below about 6.7%;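 note: stock transfer was 7.5 nL into about 10 µL; 0% = median of vehicle wells and 100% = median of positive control wells; one replicate is shown; the record names a cut of 25% in any replicate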
An asterisk follows results filed as active; i = inactive; . = not tested or not shown. This is a subset, so the mix of outcomes need not match the whole.

SMILES	ALR H2O2 inh	UCH37 inh	FGF22 binding	HNF4A DNA FP	B2AR ag	E coli growth	LANA-H2A inh
CC(=O)NNc1nc(-c2ccccc2)cs1	11.2	-4.9	i	6.5	-1.2	0.67	-0.8
OC(CNC1CCCC1)COCCOc1ccc(Br)cc1 (stereo unspecified)	-1.8	3.2	i	3.0	-2.1	0.605	5.6
Cc1csc(NC(=O)c2cc(=O)[nH]c3ccccc23)n1	-16.5	-30.1	i	-2.3	-3.3	0.688	1.8
COc1ccc(CCNC(=O)c2ccc3c(c2)NC(=O)C(C(C)C)N3)cc1OC (stereo unspecified)	3.6	1.9	i	0.5	6.7	0.653	8.2
O=C(NCCOCc1ccccc1)C(c1ccccc1)c1ccccc1	-5.0	0.8	i	1.9	-10.4	0.72	0.5
Cc1noc(C)c1CSc1nnc(-c2cccnc2)n1C1CCCCC1C (stereo unspecified)	-8.2	1.0	.	5.6	-8.5	0.677	3.8
Cc1nc2ccc(NC(=O)[C@H](C)N3C(=O)C4CC=CCC4C3=O)cc2s1 (stereo partly specified)	.	1.6	i	1.5	0.0	0.663	-3.3
C[C@H](CCCC/C=C/C(=O)O)O[C@@H]1O[C@@H](C)[C@H](O)C[C@H]1O	2.2	2.1	i	1.1	5.5	.	7.6
CCOC(=O)Nc1ccc(OC(=O)Oc2ccc(NC(=O)OCC)cc2)cc1	.	.	i	-1.7	-2.2	.	.
Cc1cc(C)nc(N/N=C/c2ccccc2OCc2ccccc2)n1	-1.8	.	i	1.6	-2.9	.	4.5

Complete entries, quoted from the list.
CCOC(=O)Nc1ccc(OC(=O)Oc2ccc(NC(=O)OCC)cc2)cc1 as listed: ALR H2O2 inh = .; UCH37 inh = .; FGF22 binding = i; HNF4A DNA FP = -1.7; B2AR ag = -2.2; E coli growth = .; LANA-H2A inh = .
COc1ccc(CCNC(=O)c2ccc3c(c2)NC(=O)C(C(C)C)N3)cc1OC (stereo unspecified) as listed: ALR H2O2 inh = 3.6; UCH37 inh = 1.9; FGF22 binding = i; HNF4A DNA FP = 0.5; B2AR ag = 6.7; E coli growth = 0.653; LANA-H2A inh = 8.2
Cc1csc(NC(=O)c2cc(=O)[nH]c3ccccc23)n1 as listed: ALR H2O2 inh = -16.5; UCH37 inh = -30.1; FGF22 binding = i; HNF4A DNA FP = -2.3; B2AR ag = -3.3; E coli growth = 0.688; LANA-H2A inh = 1.8

Additional entries
SMILES	ALR H2O2 inh	UCH37 inh	FGF22 binding	HNF4A DNA FP	B2AR ag	E coli growth	LANA-H2A inh
Cc1ccc(OC(=O)c2cncc(Br)c2)c(C)c1	-17.6	3.0	i	-0.8	2.0	0.686	2.7
COc1ccc(NC(=O)c2cc3nc(-c4ccccc4)cc(-c4ccccc4)n3n2)c(OC)c1	-4.2	-21.0	.	-7.2	-3.4	0.738	-6.8
CCn1cc(CNC(=O)CCc2ccc(OC)cc2)cn1	-6.7	1.5	.	-3.2	0.6	0.731	2.8
Cc1c(C(=O)N2CCOCC2)c(S(=O)(=O)Nc2ccc(OC(F)(F)F)cc2)c(C)n1C	-6.3	-0.8	i	-1.5	5.3	0.68	-4.1
CC(OC(=O)CN1C(=O)NC2(CCCC2)C1=O)C(=O)Nc1cccc(Cl)c1Cl (stereo unspecified)	-3.9	-1.1	i	2.0	0.6	0.689	-1.7
O=S1(=O)CCOCCCN1Cc1cccc(F)c1	2.1	1.3	i	1.8	-2.5	0.71	2.0
O=C1CC(N2CCCCCC2)C(=O)N1c1ccc(F)cc1 (stereo unspecified)	8.1	3.3	i	2.3	2.8	0.7	1.3
O=C(Cn1c(NCCO)nc2ccccc21)c1cccs1	19.6	-5.0	.	-2.5	-6.0	0.751	-3.2
O=C(COC(=O)c1ccc(F)cc1F)Nc1ccc(Cl)cn1	-2.8	2.7	i	-3.8	-5.7	0.669	24.5*
CCCn1c(N)nc2ccccc21	-2.8	0.5	.	-4.2	1.2	0.714	-0.6

Results in HNF4A DNA FP (two entries from above):
molecule	HNF4A DNA FP
O=C(COC(=O)c1ccc(F)cc1F)Nc1ccc(Cl)cn1	-3.8
CCCn1c(N)nc2ccccc21	-4.2

(more compounds)
SMILES	ALR H2O2 inh	UCH37 inh	FGF22 binding	HNF4A DNA FP	B2AR ag	E coli growth	LANA-H2A inh
COc1ccc(C(=O)N2CCN(CCNC(=O)C(=O)Nc3ccc(F)cc3)CC2)cc1OC	-1.1	-0.2	.	1.9	4.2	0.643	4.2
N#CC1(Nc2cccc(Br)c2)C(=O)Nc2ccccc21 (stereo unspecified)	39.8	6.3	i	1.2	8.4	0.727	-1.9
CCCCOC(=O)c1[nH]c2c(c1C)C(=O)CC(c1cc(OC)c(OC)c(OC)c1)C2 (stereo unspecified)	-12.6	0.4	.	-1.5	-8.2	0.77	3.6
O=C(O)c1ccc2c3c(cccc13)C(=O)N(c1cccc3ccccc13)C2=O	-17.4	16.9	.	-1.9	15.9	0.704	-3.8
O=C(O)c1cc(O)c2c(c1)[C@H]([C@H]1c3cc(C(=O)O)cc(O)c3C(=O)c3c(O[C@@H]4O[C@H](CO)[C@@H](O)[C@H](O)[C@H]4O)cccc31)c1cccc(OC3O[C@H](CO)[C@@H](O)[C@H](O)[C@H]3O)c1C2=O (stereo partly specified)	0.9	8.0	i	-90.5	10.9	.	8.1
COc1ccccc1N(C)S(=O)(=O)c1ccc(C(=O)Nc2cccc(Br)c2)cc1	-7.0	1.6	i	0.0	8.4	0.712	1.3
CCOC(=O)c1sc(=S)n(C)c1NC(=O)c1cccc(Br)c1	6.8	4.7	i	2.3	3.9	0.663	1.9
COc1ccccc1CNC(=O)COC(=O)CCC(=O)c1cccs1	.	0.6	i	-5.8	-3.6	0.694	-0.8
Cc1ccc(SCC(=O)Nc2ccc(N3CCN(c4ccccc4)CC3)c(F)c2)cc1	-1.8	-0.1	.	-4.8	2.7	0.688	-0.9
CCOc1ccc(CN2CCNC(=O)C2CC(=O)NC2CCOCC2)cc1 (stereo unspecified)	0.7	-1.7	i	-0.1	-8.4	0.703	-3.3
CSc1nsc(SCC(=O)NC2CCCCC2)n1	0.4	2.1	.	-5.3	3.1	0.619	2.8
CC1CN(C(=O)CNC(=O)COc2ccccc2)CC(C)O1 (stereo unspecified)	0.5	-1.0	i	-2.7	-4.4	0.686	2.8
O=C(O)c1ccc(Oc2ccccc2)o1	.	2.2	i	0.6	11.1	0.66	4.2
CCN1CCN(c2ccc(S(=O)(=O)N3CCCCC3)cc2NC(=O)c2cccc(Cl)c2)CC1	-2.8	2.1	i	-2.0	8.4	0.663	-0.7
O=C(NNS(=O)(=O)c1ccc(F)cc1)c1ccccc1F	24.2	-1.4	i	-1.6	0.0	0.699	-1.3
COc1cc(S(=O)(=O)Nc2ccc(C)cc2)ccc1N=Cc1c(C)[nH]n(-c2ccc(C)cc2)c1=O	-6.3	7.3	i	2.6	1.9	0.674	-0.6
O=C(NC1CCCCC1)C(c1cccs1)N(C(=O)Cc1c[nH]c2ccccc12)c1ccc(F)cc1 (stereo unspecified)	-3.4	4.8	.	2.6	4.3	0.714	1.2
COc1ccccc1NS(=O)(=O)c1ccc2oc(N)nc2c1	1.0	1.9	i	1.8	-5.1	0.664	4.9
O=S(=O)(Nc1nccs1)c1ccc(NCc2cc(Br)cc(Br)c2O)cc1	2.4	6.1	i	-3.0	-8.2	0.648	1.9
COc1ccccc1/C=C/CN1CCNC(=O)C1CC(=O)NCCc1cnccn1 (stereo unspecified)	-1.8	0.6	.	1.2	1.8	0.715	1.9
CCn1c(SCC(=O)n2c(C)c(C)c3ccccc32)nnc1-c1ccco1	0.4	3.6	.	2.7	0.4	0.693	-4.0
CC(C)(C)[C@H]1COC(=O)[C@H](NC(=O)OCC2c3ccccc3-c3ccccc32)C/C=C\C[C@@H](CC(=O)N(CCO)Cc2ccccc2)C(=O)N1	-4.4	-0.3	i	5.1	2.2	.	0.0
CC(NC(c1ccccc1)c1ccccc1)C(=O)N1CCCc2ccccc21 (stereo unspecified)	-11.3	5.0	.	-0.7	6.2	0.701	2.5
CS(=O)(=O)c1ccc2nc(NC(=O)c3ccc(S(=O)(=O)NCC4CCCO4)cc3)sc2c1 (stereo unspecified)	-20.0	8.6	i	-0.1	2.4	0.697	3.0
N#CCC(CNc1ncc(C(F)(F)F)cc1Cl)OC(=O)c1cccc(C(F)(F)F)c1 (stereo unspecified)	0.1	1.9	i	1.8	3.5	0.646	-4.8
CCS(=O)(=O)Nc1cccc(C2=NN(S(=O)(=O)c3ccc(C)cc3)C(c3cccs3)C2)c1 (stereo unspecified)	-4.7	-1.3	.	8.4	4.9	0.702	-3.8
Cc1nn(CC(=O)N2CCC(C(N)=O)CC2)c(=O)c2nn(-c3ccccc3)c(C)c12	2.7	5.5	i	2.2	-7.9	0.68	3.3
CNCC(=O)Nc1ccc(OC(F)(F)F)cc1	30.4	3.8	i	-3.8	-2.2	0.697	0.5
O=C(Nc1cccc(S(=O)(=O)N2CCCCC2)c1)c1ccccc1NS(=O)(=O)c1ccc(F)cc1	-2.4	-26.9	i	3.2	20.6	0.606	-4.0
CC(C)c1nnc(NC(=O)c2cc3cc(Br)ccc3oc2=O)s1	-3.4	1.5	i	-2.8	-13.2	0.687	2.6
COc1ccccc1C(=O)OCC(=O)c1ccc(CNC(C)=O)s1	-2.0	0.6	i	3.1	-0.8	0.634	4.1
Cc1ccc(S(=O)(=O)Nc2cccc(-n3cnnn3)c2)cc1C(=O)O	-2.6	4.8	i	-6.0	2.1	0.702	0.9
CC1CCN(C(=O)C2CCC(=O)N(Cc3ccc(Cl)cc3)C2)CC1 (stereo unspecified)	0.8	3.2	i	3.5	3.3	0.667	-0.3
COC(=O)c1ccc(NC(=O)CSc2nc(C)cc(=O)[nH]2)cc1	-9.3	2.9	.	-0.8	4.9	0.609	-4.5
COc1cccc(OC)c1NC(=O)C1CCCN1C(=O)Nc1cccc(Cl)c1 (stereo unspecified)	-3.2	-0.2	.	-4.0	7.7	0.606	-1.6
COC(=O)c1sc(NC(=O)COc2cccc3ccccc23)nc1C	-20.4	2.5	.	-5.5	2.8	0.719	-1.1
O=C(COC(=O)Cc1ccc(Br)cc1)NCc1cccs1	.	1.5	i	4.7	-3.4	0.706	.
COCCNC(=O)CSc1nc2scc(-c3ccccc3)c2c(=O)[nH]1	19.2	3.8	i	4.5	2.3	0.716	-6.3
O=C(OCC(=O)N1N=C(c2ccc(Cl)cc2)CC1c1ccco1)c1cncc(Br)c1 (stereo unspecified)	-2.0	3.5	i	-0.5	-1.7	0.734	-3.1
Cc1ccc(S(=O)(=O)C2(C(=O)N3CCN(C4CCCCC4)CC3)CC2)cc1	-2.6	2.8	.	-3.4	-9.4	0.738	1.6
Cc1ccc(S(=O)(=O)N2CCSC2C(=O)O)cc1 (stereo unspecified)	-3.0	1.5	.	2.1	-3.5	0.73	3.9
COc1ccc(OCCC(=O)NC2=NCCS2)cc1	-0.8	3.9	.	-3.4	-5.9	0.713	-2.4
O=C(COc1ccc(Br)cc1CO)Nc1ccc(S(=O)(=O)N2CCCC2)cc1	.	2.3	i	0.2	7.5	0.674	.
COc1ccc(C)cc1NC(=O)C(NC(=O)c1cc(OC)c(OC)c(OC)c1)C(C)C (stereo unspecified)	-3.8	-1.6	i	0.3	1.6	0.681	-0.1
Cc1csc(=O)n1CCC(=O)OCC(=O)Nc1ncc(Cl)cc1Cl	0.3	4.3	i	-8.6	12.2	0.656	-0.4
C=C(C)[C@H]1CC=C(C)/C(=N/NC(=O)CNc2ccccc2OC)C1	4.7	.	i	-1.8	-12.0	.	3.2
O=C(/C=C/Nc1ccc(Nc2ccccc2)cc1)c1cccs1	.	4.7	i	57.1*	49.7*	0.675	.
COc1ccc(-n2cc(CNCCc3cscn3)c(-c3ccccc3Cl)n2)cc1	-2.1	1.6	i	.	.	0.643	-2.5
CC(=O)Nc1ccc(S(=O)(=O)N2CN(c3ccc(C)cc3)c3nc4ccccc4nc32)cc1	.	1.1	i	-0.7	-0.3	0.676	-0.9
COc1cc(NC(=S)NC(=O)c2cc(C)cc(C)c2)ccc1NC(=O)c1cccs1	0.3	2.1	.	10.3	-6.9	0.733	3.3

Bioassay records: PubChem BioAssay, several laboratories
